StopGo reporter: lowers the luciferase signal of an FMDV 2A StopGo reporter; AID 1159524; 410,000 compounds, 1.2% hits; Potency, µM (doses to about 57.9 µM), for inactives: at the highest dose signal change, negative = less light; human cells with a luciferase reporter of 2A StopGo recoding; control for the full effect not named in the record; active = well fitted falling curve with a large enough effect; inconclusive = small, poorly fitted or top-dose-only effect; inactive = no such curve, though single readings can be large or run the other way; tested in HEK293T cells; further: on the % scale 0 is the no-effect control and ±100 the full control effect; nearly all actives have a fitted effect of over 45% in size; luciferase light after 4 h
NS1 function inh: blocks influenza NS1 protein function | S. cerevisiae slowed by influenza A NS1, growth recovery by OD600 | Potency, µM (titrated, usually from 46.1 µM), for the others: at the top dose activity, positive = more growth | 270,000 compounds, 0.4% hits | AID 2326; active means well fitted rising curve with a large enough effect; inconclusive means small, poorly fitted or top-dose-only effect; inactive means no such curve, though single readings can be large or run the other way; further: nearly all actives have a fitted effect of over 50% in size
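Recovery from NS1-induced slow growth read by OD600 in budding yeast switched to galactose assay medium (pH 6.0, -URA) at 1:100 dilution. Compound 23 nl per well; the matching strain lacking NS1 serves as control.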
Cruzain noTriton: inhibitors of Trypanosoma cruzi cruzain without detergent; P25779; purified cruzain, Z-FR-AMC fluorescence, no detergent; Potency, µM, without a hit: max response, negative = inhibition, actives largely listed as inhibitors; 200,000 compounds, 2.3% hits;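 further: plate controls were enzyme without inhibitor for no effect and buffer without enzyme for full effect; nearly all actives have a fitted effect of over 40% in size; top concentration of the series not given in the record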
Target sequence (P25779 123-467 limits assumed): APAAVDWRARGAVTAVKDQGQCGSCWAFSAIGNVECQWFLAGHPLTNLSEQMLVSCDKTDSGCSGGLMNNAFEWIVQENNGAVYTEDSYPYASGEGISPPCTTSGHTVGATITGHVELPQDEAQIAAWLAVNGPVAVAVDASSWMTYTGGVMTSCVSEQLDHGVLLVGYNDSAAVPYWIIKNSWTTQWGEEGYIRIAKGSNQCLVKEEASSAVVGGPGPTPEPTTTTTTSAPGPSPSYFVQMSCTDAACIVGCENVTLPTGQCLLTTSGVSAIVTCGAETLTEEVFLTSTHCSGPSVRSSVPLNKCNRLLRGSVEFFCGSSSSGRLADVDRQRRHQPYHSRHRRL
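Detergent-free condition (0.00005% Triton X-100) in acetate buffer pH 5.5 with DTT. 1.5 nM enzyme and compound were pre-mixed 15 min, then 2 uM Z-FR-AMC substrate added; reaction progress from fluorescence change between first and third reads (60 s).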
RE007 growth inh: less growth of the S. pombe RE007 Vpr strain. Potency, µM (titrated, usually from 92.2 µM), for inactives: top-dose activity change, negative = less growth. AID 651644. S. pombe RE007 Vpr strain, BacTiter-Glo ATP luminescence, 24 h; control for the full effect not named in the record. 360,000 compounds, 0.21% hits; active = well fitted falling curve with a large enough effect; inconclusive = small, poorly fitted or top-dose-only effect; inactive = no such curve, though single readings can be large or run the other way;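 further: on the % scale 0 is the no-effect control and ±100 the full control effect; nearly all actives have a fitted effect of over 50% in size; the assay follows cell death caused by Vpr and the record does not say whether a fall means rescue or toxicity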
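Fission yeast RE007 carrying one integrated HIV-1 vpr copy, seeded at OD 0.01 in PMG+AL medium with 23 nL pinned compound. Grown 24 h at 30 degrees; viability read by BacTiter-Glo luminescence after 5 min.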
LASV entry inh: Lassa virus entry inhibition; 300,000 compounds, 1.2% hits; Lassa virus pseudotype entry inhibition, cell reporter; control for the full effect not named in the record; Potency, µM (doses to about 37.9 µM), without a hit: top-dose activity change, negative = inhibition, usual class: inhibitors; active means well fitted inhibition curve with a large enough effect; inconclusive means small, poorly fitted or top-dose-only effect, or effect the other way; inactive means flat fitted curve, though single readings scatter; tested in HEK293 cells; further: on the % scale 0 is the no-effect control and ±100 the full control effect; nearly all actives have a fitted effect of over 50% in size; luciferase read-out
SARS PLpro yeast: inhibitors of SARS-CoV papain-like protease in yeast; S. cerevisiae expressing SARS-CoV PLpro, growth rescue; control for the full effect not named in the record; Potency, µM (titrated, usually from 32.9 µM), without a hit: at the top dose activity, positive = growth rescue; 330,000 compounds, 0.19% hits; active means well fitted rising curve with a large enough effect; inconclusive means small, poorly fitted or top-dose-only effect; inactive means no such curve, though single readings can be large or run the other way; further: 0% is about no effect; nearly all actives have a fitted effect of over 55% in size; growth read by luminescence after 48 h
Marburg entry inh: blocks Marburg virus binding to or entry into cells | Marburg virus pseudotyped entry inhibition, cell reporter; control for the full effect not named in the record; about a third of the inactives were read at about 46 µM | Potency, µM (series often up to 37.8 µM), inactives show top-dose activity change, negative = inhibition, hits mostly inhibitors | 300,000 compounds, 1.8% hits; active = well fitted inhibition curve with a large enough effect; inconclusive = small, poorly fitted or top-dose-only effect, or effect the other way; inactive = flat fitted curve, though single readings scatter; tested in HEK293 cells; about a fifth of its hits are not listed in these tables; further: on the % scale 0 is the no-effect control and ±100 the full control effect; luciferase read-out
Cruzain Triton: inhibitors of Trypanosoma cruzi cruzain with detergent; Potency, µM, inactives show max response, negative = inhibition, hits mostly inhibitors; 200,000 compounds, 0.43% hits; purified cruzain, Z-FR-AMC fluorescence, 0.01% Triton; P25779;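 further: plate controls were neutral wells for no effect and buffer without enzyme for full effect; nearly all actives have a fitted effect of over 40% in size; top concentration of the series not given in the record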
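15 min RT preincubation of 1.5 nM cruzain with compound, then 2 uM Z-FR-AMC added; kinetic AMC fluorescence, 60 s delta. Triton X-100 0.01%, pH 5.5.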
Starred values were filed as active, the others as inactive; ? = inconclusive; nt = no result given; [ ] = another dose, or the depositor's remark. Unless noted, the call rests on the fitted dose curve; in most records, active means well fitted curve in the direction sought with a large enough effect; inconclusive means small, poorly fitted or top-dose-only effect, or another doubt; inactive means no such curve, though single readings can be large; an effect the other way counts as inactive or inconclusive. Potency means the concentration at half of the fitted maximal effect.

SMILES	StopGo reporter	NS1 function inh	Cruzain noTriton	RE007 growth inh	LASV entry inh	SARS PLpro yeast	Marburg entry inh	Cruzain Triton
CCOc1ccc(-n2c(COc3ccc(C)cc3)nnc2SCC(N)=O)cc1	7%	6%	?	6%	-17%	-4%	?	-1.9%
Cc1cc(C)c[n+](CC(=O)c2ccccc2)c1	-11%	6%	nt	-12%	15%[46.1 µM]	-3%	?	nt
COc1ccc(-n2c(NNC(C)=O)nc3sc4c(c3c2=O)CCCC4)cc1	-17%	-11%	nt	3%	nt	-6%	nt	nt
COc1cccc(NC(=O)Cn2c3ccc(OC)cc3c3nc4n(c(=O)c32)CCS4)c1	4%	1%	nt	11%	nt	9%	nt	nt
N#Cc1cc(Sc2ccccn2)c([N+](=O)[O-])cc1C#N	-9%	nt	nt	111%	?	3%	3%[46.1 µM]	nt
COc1ccc(CC(=O)OCC(=O)N2N=C(c3ccccc3)CC2c2ccc(OC)cc2)cc1 (configuration not stated)	4%	10%	-4%	nt	-8%	-3%	?	-3.0%
CC(C)N=c1cc2n(-c3ccc(Cl)cc3)c3ccccc3nc-2cc1Nc1ccc(Cl)cc1	-14%	nt	-11%	3%[18.4 µM]	nt	nt	nt	1.4%
O=C(Nc1nnc(-c2ccccc2)s1)c1ccccc1O	-9%	-9%	nt	-6%	?	0%	2%[46.1 µM]	nt
CC(=O)Nc1ccc(NC(=O)c2ccc(COc3ccccc3Br)o2)cc1	1%	1%	nt	-8%	nt	1%	nt	nt
COc1ccc(/C(O)=C2/C(=O)C(=O)N(CC3CCCO3)C2c2ccc(O)c(OC)c2)cc1 (configuration not stated)	-13%	nt	nt	-2%	-1%	-7%	1%[46.1 µM]	nt
CCCCOc1ccccc1C1NC(=O)CCC1[N+](=O)[O-] (configuration not stated)	-3%	2%	nt	-14%	?	-2%	?	nt
Cc1cc(C)n(CC(=O)N/N=C/c2ccc([N+](=O)[O-])s2)n1	26%	nt	nt	?	?	-22%	?	nt
CCOC(=O)c1c(-c2ccc(C)s2)csc1NC(=O)c1cccs1	32%	5%	-20%	-3%	-5%	1%	-7%	-6.9%
COc1ccc(N2CCN(C(c3ccc(F)cc3)c3sc4nc(-c5ccco5)nn4c3O)CC2)cc1 (configuration not stated)	12%	nt	?	nt	17%[46.1 µM]	nt	nt	-3.5%
Cc1cc(C)cc(-n2c(SCC(N)=O)nc3c(oc4ccccc43)c2=O)c1	-21%	nt	7%	nt	nt	nt	-29%[46.1 µM]	-5.3%
Cc1cccc(-n2ncc(C(=O)N3CCOCC3)c2C2CCN(C(=O)OC(C)(C)C)CC2)c1	6%	nt	-4%	nt	?	nt	nt	-1.4%
CCOC(=O)Cn1c(=O)n(Cc2ccc(OC)cc2)c(=O)c2cccnc21	-7%	-5%	nt	1%	18%[46.1 µM]	1%	-17%[46.1 µM]	nt
CC1(C)NC(=O)N(CCCOc2ccccc2Br)C1=O	43%[activator]	-3%	8%	-5%	1%	2%	?	-0.5%
Cc1ccc(N(CC(=O)NCc2ccco2)C(=O)CNS(=O)(=O)c2ccc(F)cc2)c(C)c1	-14%	7%	nt	13%	-1%	-5%	?	nt
CC(=O)Nc1ccc(N2C(C(C)=O)=NN(c3ccccc3)C2c2cccs2)cc1 (configuration not stated)	-10%	12%	?	1%	?	1%	?	-6.6%
CC1=C[C@@H](C)[C@@H](c2ccc(C(F)(F)F)cc2)OC1=O	-10%	-2%	nt	-10%	nt	5%	nt	nt
O=c1c2c(nc3c(-c4cccc5ccccc45)c[nH]n13)CCC2	-14%	8%	-18%	0%	3%	4%	-6%	0.8%
CCOCCCNc1nc2c(c(=O)n(C)c(=O)n2C)n1CCCc1ccccc1	?	-5%	?	-6%	0%	-4%	-24%	2.6%
O=[N+]([O-])c1cccc(/C=N/Nc2nc(N3CCCCC3)nc(N3CCCCC3)n2)c1	-28%	nt	nt	11%	11%[46.1 µM]	-1%	-3%[46.1 µM]	nt
CCCn1c(=O)[nH]c(=O)c2c(C(F)(F)F)cc(-c3ccc(C)cc3)nc21	-13%	nt	nt	0%	11%[46.1 µM]	-2%	4%[46.1 µM]	nt
SMILES	StopGo reporter	NS1 function inh	Cruzain noTriton	RE007 growth inh	LASV entry inh	SARS PLpro yeast	Marburg entry inh	Cruzain Triton
O=C(c1ccccc1)N(NC(=O)C(O)(c1ccccc1)c1ccccc1)c1cccc(F)c1	?	8%	3%	16%	0%	-10%	?	-0.6%
COc1ccc(CCn2c(NN=C3CCCC3)nc3c2c(=O)[nH]c(=O)n3C)cc1	3%	3%	nt	-9%	nt	0%	nt	nt
CCOc1cc(S(=O)(=O)NCCCN2CCOCC2)c(C)cc1C	73%[activator]	3%	nt	2%	3%	2%	?	nt
O=C(CN1CCC(O)CC1)N1c2ccccc2C=Cc2ccccc21	-10%	3%	9%	1%	-5%	3%	?	-3.0%
CC(C)(C)n1cnc2cc(NC(=O)c3cccs3)ccc21	4%	-4%	nt	-6%	?	1%	?	nt
O=C(c1ccc(O)cc1)c1ccc(C(=O)O)c(C(=O)O)c1	12%	14%	-9%	15%	-4%	?	18%	-3.1%
O=C(c1ccc2c(c1)OCO2)N(c1ccc(Br)cc1)C1C=CS(=O)(=O)C1 (configuration not stated)	-19%	17%	nt	-11%	-7%	0%	-4%	nt
CCOC(=O)C(C)Sc1nnc(-c2c[nH]c3ccccc23)n1C (configuration not stated)	-14%	-20%	-2%	-2%	nt	-6%	nt	-3.8%
CCN(c1cccc(C)c1)c1ncnc2c1cnn2-c1cccc(Cl)c1	4%	nt	-5%	nt	25%[46.1 µM]	nt	nt	-0.4%
CC(=O)c1ccccc1NC(=O)CSc1n[nH]c(=O)n1C1CC1	-6%	nt	nt	5%	-18%[46.1 µM]	2%	2%[46.1 µM]	nt
Cn1c(=O)cc(SCC(=O)N2CCC3(CC2)OCCO3)c2ccccc21	18%	2%	8%	-11%	11%	-3%	15%	1.2%
NS(=O)(=O)c1ccc(-n2ncc3c(=O)[nH]c(SCC(=O)Nc4nccs4)nc32)cc1	-17%	22%	2%	-2%	-17%	-6%	-21%	-0.2%
NNC(=O)c1sc2cc(C(F)(F)F)cnc2c1-c1cccs1	4%	0%	nt	0%	-16%[46.1 µM]	0%	-4%[46.1 µM]	nt
CN(C)CCn1c(=O)n(Cc2ccco2)c(=O)c2c3c(sc21)CCCCC3	-16%	-1%	5%	12%	-2%	2%	?	4.7%
C=CCn1c(SCC(=O)O)nc2sc(CC)cc2c1=O	-8%	1%	nt	-2%	-1%	0%	21%[46.1 µM]	nt
COc1ccccc1-c1nn2c(=O)cc(CN3CCN(C(=O)COc4ccccc4Cl)CC3)nc2s1	-18%	nt	-5%	nt	1%[46.1 µM]	nt	nt	1.0%
O=C(c1cc(-c2ccccn2)nc2ccc(Cl)cc12)N1CCN(CCc2ccccc2)CC1	-29%	8%	nt	-8%	-9%	0%	0%	nt
Cc1noc(-c2ccc(-c3noc(-c4ccccc4)n3)cc2)n1	33%[activator]	nt	-3%	nt	2%[46.1 µM]	nt	nt	2.2%
O=c1[nH]c2cccnc2n(CCNc2ncc(C(F)(F)F)cc2Cl)c1=O	-15%	nt	nt	0%	-1%	0%	2%[46.1 µM]	nt
CCOc1ccc(NC(=O)CSc2nnc(C)n2Cc2ccccc2)cc1	4%	-13%	28%	9%	-20%	8%	1%[46.1 µM]	-0.4%
COc1cc(/C=C2\SC(=O)N(CCN)C2=O)ccc1OS(=O)(=O)c1cc(C)ccc1C	?	nt	nt	9%	?	-3%	?	nt
CSc1nc(N2CCN(C)CC2)c2c(c1C#N)CC(C)(C)OC2	-16%	-3%	nt	3%	7%	1%	2%[14.2 µM]	nt
CC(C)C(=O)Nc1cccc(C(=O)Nc2ccc3c(c2)OCO3)c1	19%	5%	-9%	1%	-15%	3%	-3%	1.0%
C=CCNC(=O)/C(C#N)=C/c1ccccc1OCc1ccc(C(=O)OC)cc1	?	-7%	4%	13%	nt	-1%	-2%	-2.1%
COc1ccc(NS(=O)(=O)c2cccc(C(=O)N(C)CC(=O)Nc3ccc(C)cc3)c2)cc1	27%	nt	nt	15%	-7%	3%	2%	nt
SMILES	StopGo reporter	NS1 function inh	Cruzain noTriton	RE007 growth inh	LASV entry inh	SARS PLpro yeast	Marburg entry inh	Cruzain Triton
CC(=O)Nc1ccc(NC(=O)Cc2ccc(S(=O)(=O)N3CCCCC3)s2)cc1	-10%	6%	2%	-7%	9%	?	?	-8.3%
CN(C)CCOC(=O)c1cn(Cc2ccccc2)c2ccccc12	-25%	-4%	-3%	-10%	-7%	-4%	?	-2.0%
COc1cc2nc(CN(C)Cc3ccc(SC)cc3)[nH]c(=O)c2cc1OC	-19%	-7%	nt	-9%	nt	-6%	nt	nt
CCOC(=O)Cn1nc(C)c(NC(=O)c2cccc([N+](=O)[O-])c2)c1C	7%	nt	nt	-9%	30%	1%	-25%[46.1 µM]	nt
Cc1ccccc1NC(=O)NCC1CCN(C(=O)OC(C)(C)C)CC1	7%	2%	nt	-1%	-17%	0%	3%	nt
Cc1ccc(-c2cc(C(=O)NCCCN3CCOCC3)no2)cc1	?	2%	-1%	-13%	-17%	2%	1%	-2.3%
O=C(c1cn(-c2ccccc2)nc1-c1cccs1)N1CCOCC1	9%	3%	0%	9%	0%	0%	2%	8.0%
CC(C)(C)C(=O)Nc1c2c(nn1-c1ccccc1)CSC2	10%	?	nt	19%	nt	3%	nt	nt
Cc1ccc(-n2nnc3c(=O)n(Cc4cc(C)ccc4C)cnc32)cc1	nt	6%	?	-14%	?	-8%	-27%	0.8%
O=C1c2ccc(Br)cc2C(=O)N1c1ccc(Cl)cn1	9%	1%	nt	-17%	nt	4%	nt	nt
Cc1ccccc1C(=O)NNc1ccc(-c2csnn2)cc1	-5%	-35%	nt	31%	6%	-1%	-4%[46.1 µM]	nt
O=C(O)CC(NC(=O)CCC1CCCCC1)c1cc([N+](=O)[O-])ccc1Cl (configuration not stated)	22%	nt	nt	3%	0%	-2%	1%[46.1 µM]	nt
O=C(O)CCCCCN1C(=O)c2ccc(C(=O)O)cc2C1=O	nt	-1%	3%	1%	4%	-5%	-2%	0.9%
CC1(c2ccc(Cl)cc2)NC(=O)N(CN2CCOCC2)C1=O (configuration not stated)	-6%	5%	nt	-2%	5%	-2%	8%[46.1 µM]	nt
Cc1cccc(N2CCN(C(=O)CN3CCOc4ccccc43)CC2C)c1 (configuration not stated)	?	-53%	5%	9%	nt	2%	nt	3.4%

From PubChem
